Bioassay records (PubChem BioAssay)
NPYLR7 ag: activates Aedes aegypti NPYLR7 receptor. HEK293T NPYLR7/Galpha15, GCaMP6s calcium fluorescence. activation, % at 10 µM. hit rate 0.15% among 270,000. AID 1259423; in the data active = activation above about 40%;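 note: 0% = vehicle and 100% = reference agonist at the receptor; some compounds past the cut are filed as inactive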
NPYLR7 ag max-min: second read-out of NPYLR7 ag, no call of its own (marks repeat the call); activation, %; measured here: Max-Min RFU normalised activation; some inactives read as strong as hits;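 span of the calcium signal over five minutes; 0% = vehicle and 100% = native peptide agonist; compound fluorescence can raise it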
An asterisk follows results filed as active; & = joins results of further samples.

SMILES	NPYLR7 ag	NPYLR7 ag max-min
O=C(Nc1nc(-c2cccc3ccccc23)cs1)c1ccc(S(=O)(=O)N2CCCCC2)cc1	-2	-2
CCOC(=O)[C@@H]1[C@H](c2ccccc2)[C@@H](NC(=O)COC)[C@H]2CCCCN21	19	26
O=c1cc(CO)oc(C(Nc2ccccn2)c2cccc(Cl)c2)c1O (stereo not drawn)	3	4
CC(C)C(=O)N1CCC(NC(=O)N2CCCC2C2CCC2)C1 (stereo not drawn)	1	0
OCc1ccc(-c2nccn2C[C@H]2CCc3ccccc3O2)o1	3	0
CC(C)NC(=O)C1(C)CCN1C(=O)Cc1ccc(C(C)C)cc1 (stereo not drawn)	0	-2
CCCCNC(=O)C1(C)CCN1Cc1ccc(-c2ccccn2)cc1 (stereo not drawn)	7	3
CN(Cc1ccco1)C(=O)c1coc(CN2CCN(Cc3ccccc3)CC2)n1	7	-7
CC(C)c1noc(CSc2nnc(CC3CCNCC3)n2C)n1	-3	-6
Cc1nc(SCC(=O)Nc2ccc3c(c2)OCCCO3)n(C2CCCCC2)c1C	2	0
CCc1cc(Br)ccc1S(=O)(=O)N1CCC(c2c[nH]c3ccc(OC)cc23)CC1	35	37
Cc1nn(S(=O)(=O)c2ccc(OC(C)C)cc2)c(C)c1S(=O)(=O)N1CCCC1	-1	-2
COc1ccc(CCN(C)S(=O)(=O)c2ccc(OC)c(N3CCN(C(=O)C(F)(F)C(F)F)CC3)c2)cc1OC	1	-3
CN(Cc1ccc(Cl)cc1)c1ccc2c(C3CC3)noc2n1	4	2
CCOc1ccccc1NS(=O)(=O)NCc1ccccc1	17	6
O=C(CCC1CCCN(C(=O)CCc2ccc(F)c(F)c2)C1)NC1CC1 (stereo not drawn)	2	0
Cc1ccc(Cc2nsc(N3CCC(CNC(=O)NC45CC6CC(CC(C6)C4)C5)CC3)n2)cc1	20	21
CCc1nc2c(OCc3cccc(OC)c3)cccn2c1N(C)C(=O)c1cccs1	10	2
O=C(Cn1cc(OCc2ccc(F)cc2)c(=O)cc1CO)N1CCCC1	2	-1
N/C(=N/OCc1ccc(F)cc1)c1nonc1N	1	0
CCn1nc(C(=O)N(CC2CCCO2)c2nc3cc(OC)ccc3s2)cc1C (stereo not drawn)	-3	-2
N#CC(C(=O)CCl)c1nncn1-c1ccccc1 (stereo not drawn)	-1	-2
C[C@@H](NC(=O)/C(C#N)=C/c1ccc(O)c(O)c1)c1ccccc1	5	-50
COc1cc(CNc2nccnc2-c2ccc(F)c(Cl)c2)cc(OC)c1OC	-8	-15
COc1ccccc1-c1cccc(C(=O)NCCn2ccnn2)c1	5	2
CCCCCCn1c(=O)c2c(nc3n2CCCN3c2cc(C)cc(C)c2)n(C)c1=O	2	6
CN(Cc1ccc(Br)o1)S(=O)(=O)N1CCOCC1	0	-2
CCc1n[nH]c(=O)c(CNc2ncc(C#N)cc2Cl)c1CC	11	10
CCc1nc(CN2CC[C@@](C)(O)[C@@H](CC)C2)c(C)[nH]1	1	9
O=C(c1cccnc1)N1CCC2(CCCN(CCc3ccccc3)C2)C1 (stereo not drawn)	4	1
CC(=O)NC(C)c1ccc(C(=O)c2cc3ccccc3o2)cc1 (stereo not drawn)	-4	-3
Cn1c(C(=O)N2CCCC2)cc2c(=O)n3ccccc3nc21	5&-4	6&-7
CC(C)Sc1nc(N2CCCC2)c2cnn(CCNC(=O)c3ccccc3F)c2n1	3	4
COc1ccc(NC(=O)Cn2ccn3nc(-c4ccc(C)cc4)cc3c2=O)cc1	1	0
COc1cccc(C(=O)N(CCN(C)C)Cc2csc(COc3cc(Cl)ccc3Cl)n2)c1	1	4
OC(CN1CCCN2CCCC2C1)c1cc(Cl)ccc1Cl (stereo not drawn)	-3	-6
OCC1CCCCN1c1ccc(-c2nc(CCc3ccccc3)no2)cn1 (stereo not drawn)	-1	-4
Cc1ccc(CN2CCC(CN(C)Cc3cn[nH]c3-c3cccc(F)c3)CC2)o1	4	2
CCOc1cn(C)c(C(=O)Nc2cccc(C(C)=O)c2)cc1=O	5	3
COCCCN(CC(=O)N(Cc1ccccc1)Cc1cccn1C)C(=O)COc1ccc(Cl)cc1	-2	8
CCC(=O)N(c1nnc(SCC(=O)N2CCCC2=O)s1)C1CC1	7	15
COc1cccc(C(=O)N2CCN(c3ccc(-n4nc(C)c(C)c4C)nn3)CC2)c1OC	-5	-10
Cc1ccccc1-c1onc(C)c1C(=O)NCCc1ccc(N)cc1	2	3
CCCc1cnc2c(c1SCc1ccccc1C)c(=O)n(C)c(=O)n2C	4	4
CC1CCCN(Cc2csc(NC(=O)CNC(=O)c3ccccc3)n2)C1 (stereo not drawn)	23	18
O=C(NCc1ccc2c(c1)OCO2)C1CCC(=O)N(CCN2CCOCC2)C1 (stereo not drawn)	3	-1
COc1ccc(OCC2CN(C(=O)CCOc3ccc(Cl)cc3)CCO2)cc1 (stereo not drawn)	24	21
O=C(c1ccsc1)N1CCCC(N2CCN(c3cccc(C(F)(F)F)c3)CC2)C1 (stereo not drawn)	2	1
CCCCN(C)c1c(CC)nc2ccc(C(=O)Nc3ccc(OC)c(OC)c3)cn12	1	-11
CCOC(=O)C1=C(C)N=c2s/c(=C\c3cc(OC)ccc3OC)c(=O)n2C1c1cccs1 (stereo not drawn)	4	4

An excerpt of these results, in markdown:
| Structure | NPYLR7 ag | NPYLR7 ag max-min |
| --- | --- | --- |
| CCCc1cnc2c(c1SCc1ccccc1C)c(=O)n(C)c(=O)n2C | 4 | 4 |
| CC1CCCN(Cc2csc(NC(=O)CNC(=O)c3ccccc3)n2)C1 (stereo not drawn) | 23 | 18 |
| O=C(NCc1ccc2c(c1)OCO2)C1CCC(=O)N(CCN2CCOCC2)C1 (stereo not drawn) | 3 | -1 |
| COc1ccc(OCC2CN(C(=O)CCOc3ccc(Cl)cc3)CCO2)cc1 (stereo not drawn) | 24 | 21 |
| O=C(c1ccsc1)N1CCCC(N2CCN(c3cccc(C(F)(F)F)c3)CC2)C1 (stereo not drawn) | 2 | 1 |
| CCCCN(C)c1c(CC)nc2ccc(C(=O)Nc3ccc(OC)c(OC)c3)cn12 | 1 | -11 |

Additional structures follow:
SMILES	NPYLR7 ag	NPYLR7 ag max-min
O=C(c1ccc(F)cc1F)N1CCN(Cn2cc(Cl)cn2)CC1	0	16
CC(C)(C)c1cccc(OCc2nc(CC3CC3)no2)c1	1	0
CN(C)CC(C)(C)CNC(=O)c1ccc(-c2n[nH]c3c2CCCc2ccccc2-3)cc1	4	0
Cc1cccc(-c2noc(N3CCOCC3)c2CN(CCN(C)C)C(=O)c2ccco2)c1	7	11
COc1ccc(Cl)cc1NC(=O)c1cnn2c(C(F)(F)F)cc(-c3ccc(C)cc3)nc12	-8	-13
O=C(c1cn2ccsc2n1)N1CCc2c([nH]c3ccccc23)C1C1CCCCC1 (stereo not drawn)	-19	-24
CCOc1ccc(Nc2cc(C)nc(-n3nc(C)cc3C)n2)cc1	2	2
CC(=O)Nc1ccc(OS(=O)(=O)C(F)(F)C(=O)N2CCCCC2)cc1	0	1
Cc1ccc(-n2cc(C(=O)N3CCC(NC(=O)c4ccc(C#N)cc4)CC3)nn2)cc1	-7	-9
Cc1ccc(-n2nc(C)c(CCC(=O)NCCCN3CCCC3=O)c2C)cc1C	-7	-13
CCC(CC)NC(=O)CCc1c(C)nc2nc(N)nn2c1C	8	6
Cc1[nH]cnc1C1CC(=O)Nc2cc3c(cc21)CCc1ccccc1N3 (stereo not drawn)	3	-1
CCN1CCC(NC(=O)CSc2nc3ccccc3n2CCOC)CC1	1	21
CCC1(CO)CCCN(C(=O)Nc2nnc(C)s2)C1 (stereo not drawn)	-4	-8
CSc1nc(-c2ccccc2)nc(NC(C)=O)c1C(C)=O	11	8
Cc1cccc(NC(=O)CCc2c(C)nn(-c3nc(C)cc(=O)[nH]3)c2C)n1	16	14
O=C(O)c1nn(Cc2nc3ccccc3o2)c(=O)c2ccccc12	0	17
CCN(CCn1cccn1)Cc1cn(-c2ccccc2)nc1-c1ccc2c(c1)OCO2	22	20
COc1ccc(CCCNC(=O)c2ccc(-c3cncnc3)nc2)cc1	20	10
COc1ccc(NC(=O)CN2CCc3c([nH]c4ccc(OC)cc34)C2)cc1	9	11
CCOc1c(Cl)cc(/C=C/C(=O)N2CCc3sccc3C2)cc1OC	5	4
CC1(C)OCC(CNC(=O)Cc2cccc(NC3OC(C4COC(C)(C)O4)[C@@H]4OC(C)(C)O[C@H]34)c2)O1 (stereo partly drawn)	0	-7
CCCCCn1c(N2CCC(C(N)=O)CC2)nc2c1c(=O)[nH]c(=O)n2C	8	4
Cc1cc(C)n(CC(C)NCc2noc(-c3ccco3)n2)n1 (stereo not drawn)	12	13
COc1ccccc1N1C(=O)CSC1c1cccc(NC(=O)c2ccc(Cl)cc2Cl)c1 (stereo not drawn)	4	5
CCOC(=O)CSc1nnc2n1CCN2c1ccccc1	1	0
CN1CCC(Cc2noc(CCc3nc(Cl)n[nH]3)n2)CC1	19	7
CN(C)c1ccc(NC(=O)C2CCC2)cc1CN(C(=O)c1ccccc1Cl)C1CCCCC1	21	35
O=C(Nc1ccc(F)c(-n2cccc2)c1)N1CC[C@H](O)C1	-1	-2
CCOC(=O)C(C(=O)C(F)(F)F)C1c2ccccc2Sc2ccccc21 (stereo not drawn)	0	-1
c1ccc(C2CCN(CCn3cnnc3)CC2)cc1	2	0
COCc1c(Br)c(C)nc(OCC(=O)N/N=C\c2cc(Br)c(OCc3ccccc3)c(OC)c2)c1C#N	7	16
COc1ccc(C(=O)CSc2nnc(NC(=O)CC(C)CC(C)(C)C)s2)cc1 (stereo not drawn)	16	19
CC(C)CC(NC(=O)CCc1nc2sc3c(c2c(=O)[nH]1)CCCC3)c1ccccc1 (stereo not drawn)	0	15
CCCCC(NC1CCN(S(C)(=O)=O)CC1C)C(N)=O (stereo not drawn)	3	1
COc1cc(C2c3[nH]c4ccccc4c3CCN2Cc2cccc3nccnc23)ccc1F (stereo not drawn)	2	1
Cc1nn(CCO)cc1CN1CCCC1c1nc2c(C)cccc2[nH]1 (stereo not drawn)	9	7
O=C(N/N=c1\oc2cc(O)ccc2cc1-c1nc2ccccc2[nH]1)c1cccc(Br)c1	19	12
Cc1sc(NC(=O)C(C)(C)C)c(C(=O)OCC(=O)N(C)C)c1C	7&1	4&-1
Cc1cccc(-c2n[nH]c(=S)n2CC(=O)N2CCCC(C)C2)c1 (stereo not drawn)	6	10
COCC1(C(=O)Nc2ccccc2SCc2ccccc2F)CCC1	-3	-5
COc1ccccc1C(=O)Nc1cccc(N2CCC(NCc3ccccc3C)CC2)c1	16	7
CN(CCc1ccccc1)C(=O)c1nc2sccn2c1CNC1CCC1	-16	-22
CCN1CCN(C(=O)c2cnn(-c3ccc([N+](=O)[O-])cc3)c2-c2ccccc2)CC1	-3	-2
CCOC(=O)CN1CC(=O)C(C=NNc2ccccc2)C1=O (stereo not drawn)	3	1
Clc1cc2c(cc1CN(CC1CCN(C3CCCC3)CC1)CC1CCCO1)OCO2 (stereo not drawn)	6	-2
CN1CCC2(CC1)CC(=O)c1cc(-c3cccc(C(=O)NN4CC5CCCC5C4)c3)ccc1O2 (stereo not drawn)	12	4
O=C(Nc1ccc2c(c1)OCO2)C12CC3CC(CC(C3)C1)C2	11	5
Cc1oc(-c2cccs2)nc1CN(C)Cc1ccccc1C(F)(F)F	1	-3
C=CCN(Cc1ccc(Cl)s1)C(=O)c1cc(=O)[nH]c2c(Br)cccc12	-1	-3

Part of the list above, set out differently:
Under each structure: NPYLR7 ag | NPYLR7 ag max-min
- CCN1CCN(C(=O)c2cnn(-c3ccc([N+](=O)[O-])cc3)c2-c2ccccc2)CC1
 : -3 | -2
- CCOC(=O)CN1CC(=O)C(C=NNc2ccccc2)C1=O (stereo not drawn)
 : 3 | 1
- Clc1cc2c(cc1CN(CC1CCN(C3CCCC3)CC1)CC1CCCO1)OCO2 (stereo not drawn)
 : 6 | -2
- CN1CCC2(CC1)CC(=O)c1cc(-c3cccc(C(=O)NN4CC5CCCC5C4)c3)ccc1O2 (stereo not drawn)
 : 12 | 4
- O=C(Nc1ccc2c(c1)OCO2)C12CC3CC(CC(C3)C1)C2
 : 11 | 5
- Cc1oc(-c2cccs2)nc1CN(C)Cc1ccccc1C(F)(F)F
 : 1 | -3
- C=CCN(Cc1ccc(Cl)s1)C(=O)c1cc(=O)[nH]c2c(Br)cccc12
 : -1 | -3

Carrying on:
SMILES	NPYLR7 ag	NPYLR7 ag max-min
COc1cccc(Cc2nsc(Oc3ccc(CC(=O)NC(C)CCc4ccccc4)cc3)n2)c1 (stereo not drawn)	23	19
CC1CCN(c2ccc(NC(=O)c3ccc(Cl)c([N+](=O)[O-])c3)cc2C(=O)NCCc2ccccc2)CC1	-9	2
CCCSc1ncccc1C(=O)N(CCN(C)C)Cc1ccccc1	-8	-11
COC(=O)CC1SC(=O)NC1=Nc1ccc(OC)cc1 (stereo not drawn)	5	5
OC(c1ccc(F)c(F)c1)c1nc(-c2cccc3cccnc23)cs1 (stereo not drawn)	5	1
Cc1nn(C)c(C)c1Nc1ccc2c(=O)c(Oc3ccc(Cl)cc3)coc2c1	1	0
CCc1nc(-c2c(-c3ccccc3)ncn2CCSc2ncn[nH]2)c(C)[nH]1	7	6
O=C(NCC1CCCO1)c1cc2n(n1)CCN(Cc1c(Cl)cccc1Cl)C2=O (stereo not drawn)	16	3
CN(C)CCCNC(=O)c1cc(NC(=O)c2ccc(Cl)cc2Cl)ccc1N1CCCC1	21	29
Cc1[nH]n2c(=O)cc(-c3ccc([N+](=O)[O-])cc3)nc2c1-c1cccc2ccccc12	-14	-23
CCc1ccc(S(=O)(=O)Nc2cc(C(=O)N(C)C)ccc2Cl)s1	5	9
Cc1ccc2nc(C3CCCN3Cc3cncn3C3CCCC3)[nH]c2c1 (stereo not drawn)	2	-5
O=C1CC2(CCCC2)C(=O)N1CN1CCN(S(=O)(=O)c2ccc3c(c2)CCCC3)CC1	-4	4
CC1Cc2cc(-c3cc(CC(=O)NCCCn4ccnc4)no3)ccc2O1 (stereo not drawn)	1	2
O=C(CN1CCOc2ccccc2C1)N1CCCC1Cn1cccn1 (stereo not drawn)	15	3
CCN1CCN(Cc2cc(C(=O)N(C)Cc3cccc(Cl)c3)no2)CC1	23	12

Not all compounds are listed; the hit share may differ from the screen's.
